# Source: PubChem (several laboratories)
# Insulin prom inh – inhibitors of insulin promoter-driven GFP, primary screen, imaging, TRM-6 cells (human fetal islet line), eGFP reporter, cell count; reporter expression induced with tamoxifen; inhibition, % at 2 µM; 130,000 compounds, 0.9% hits;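 active means inhibition above the mean plus 3 SD, with well images judged a real hit on visual review, cut at about 60% in these data, passing the limit was not always enough; inconclusive means inhibition over the cutoff but images rejected on review; inactive means inhibition not above the cutoff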
# HSV replic up – enhancers of HSV replication in host cells, fold increase, host cell viability; HSV replication augmentation in cells; maximum fold increase; 220,000 compounds, 0.005% hits;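 active means peak rise of 1.5-fold or more in the series; inconclusive means self-fluorescent or not available for retest; tested in PC3 cells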;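 further: first round at 10 µM; read as green reporter fluorescence; hits show the peak of a series up to 25 µM; 1 = signal of infected wells without compound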
# RGS16-Gao HTS – modulators of RGS16 binding to Galphao, primary screen, biochemical, human proteins, multiplexed bead flow cytometry. Regulator of G-protein signaling 16 (Homo sapiens) + Guanine nucleotide-binding protein …. bead-based flow cytometry RGS16-Galphao binding, fluorescence; actives lie on both sides. binding response (% of control), % at 10 µM. 220,000 compounds, 0.38% hits. AID 1441, 2008;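 active means below 25% or above 175%, edge rows of some plates excepted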;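 further: Galphao activated by GDP with aluminum fluoride before binding; 100% = wells without compound and 0% = beads without RGS; some results beyond the cut were filed as inactive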
# GALR2 ag – GALR2 receptor agonists, primary screen, cell-based | activation, %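 (tested at 5 µM)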 | 140,000 compounds, 0.48% hits | AID 803, 2007 | GALR2-expressing cells, agonist activation read-out;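 active means above mean plus 3 SD of all compounds, about 5% in these data, not always enough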;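 further: 0% = vehicle buffer wells and 100% = reference agonist at full effect; tested in CHO reporter cells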
# PKD1 inh – inhibitors of human PKD1 kinase, biochemical, fluorescence polarization; PKD1 kinase fluorescence polarization assay; inhibition, %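 (about 10 µM by stock and volumes)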; Serine/threonine-protein kinase D1 (Homo sapiens), Q15139; 200,000 compounds, 0.056% hits; AID 797, 2007;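 active means inhibition of 50% or more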;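 further: controls were vehicle for no effect and a reference inhibitor for full effect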
# Target sequence (Q15139 whole entry, looked up): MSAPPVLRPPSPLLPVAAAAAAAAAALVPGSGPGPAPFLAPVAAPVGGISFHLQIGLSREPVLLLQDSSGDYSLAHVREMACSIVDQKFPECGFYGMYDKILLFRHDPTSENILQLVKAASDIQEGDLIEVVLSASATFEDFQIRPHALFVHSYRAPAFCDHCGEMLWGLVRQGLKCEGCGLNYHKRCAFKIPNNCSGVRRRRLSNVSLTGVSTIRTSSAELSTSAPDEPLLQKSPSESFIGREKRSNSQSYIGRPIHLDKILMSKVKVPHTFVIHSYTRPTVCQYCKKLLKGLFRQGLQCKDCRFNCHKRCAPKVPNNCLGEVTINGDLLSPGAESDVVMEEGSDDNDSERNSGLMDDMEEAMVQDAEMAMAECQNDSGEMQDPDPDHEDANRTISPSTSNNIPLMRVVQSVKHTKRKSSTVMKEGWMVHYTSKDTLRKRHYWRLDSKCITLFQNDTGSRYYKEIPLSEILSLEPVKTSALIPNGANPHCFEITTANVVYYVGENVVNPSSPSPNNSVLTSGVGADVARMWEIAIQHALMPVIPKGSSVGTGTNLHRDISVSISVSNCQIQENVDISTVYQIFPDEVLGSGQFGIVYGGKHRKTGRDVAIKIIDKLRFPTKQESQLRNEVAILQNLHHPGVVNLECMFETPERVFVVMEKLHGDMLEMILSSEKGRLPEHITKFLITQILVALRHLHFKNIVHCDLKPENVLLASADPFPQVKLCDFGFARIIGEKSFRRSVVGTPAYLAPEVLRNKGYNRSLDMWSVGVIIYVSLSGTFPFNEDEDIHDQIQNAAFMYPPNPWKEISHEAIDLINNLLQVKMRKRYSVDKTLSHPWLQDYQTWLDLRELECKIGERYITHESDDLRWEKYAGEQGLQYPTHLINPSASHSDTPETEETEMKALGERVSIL
# Insulin prom inh cell count – further read-out of Insulin prom inh, marked with its call; normalized cell count, %; measured here: cell count, toxicity; reference of the scale not given here;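 cells exposed to compound for 48 h; stained nuclei by imaging scaled within each plate; lower means fewer cells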
# HSV replic up primary fold – also measured in HSV replic up; calls as there; fold increase; compound at 10 µM; measured here: primary screen fold increase 10 uM; tested in PC3 cells;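 GFP signal in the first replicate; 1 = infected wells without compound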
# Active calls of the source: *; i = inactive; ? = inconclusive; . = not tested or not shown; & = joins results of further samples.
Structure | Insulin prom inh | Insulin prom inh cell count | HSV replic up | HSV replic up primary fold | RGS16-Gao HTS | GALR2 ag | PKD1 inh
CCC(C)(C)NC(=O)C(c1cccn1C)N(C(=O)Cn1nnc2ccccc21)c1ccc(OC)cc1 (stereo not given) | -150.0 | 122.0 | i | 0.95 | 100.4 | 0.5 | 7.6
CCCN1Cc2cccc(C(=O)N3CCN(c4ccc(F)cc4)CC3)c2C1=O | . | . | i | 1.03 | 99.7 | -3.4 | 0.6
Cc1nn2c3ccccc3nc2n(Cc2ccccc2)c1=O | 41.4 | 46.3 | . | . | . | -0.1 | -12.4
COc1ccc(CNC(=O)c2noc(C)c2[N+](=O)[O-])cc1 | -11.8 | 64.0 | i | 0.98 | 102.6 | . | -5.3
COc1cc(CN2CCN(S(=O)(=O)c3ccc(NC(C)=O)cc3)CC2)cc(OC)c1O | -42.3 | 76.0 | i | 0.91 | 99.6 | -1.2 | -10.7
CC(C)C(NS(=O)(=O)c1cccc2nsnc12)C(=O)NCc1ccc2c(c1)OCO2 (stereo not given) | . | . | i | 0.86 | 102.9 | -2.0 | -10.6
O=C(NCCCN1CCCC1)c1ccc2c(Cl)c3c(nc2c1)CCCC3 | -64.3 | 116.9 | i | 0.87 | 101.3 | . | 3.3
Cc1cc(F)ccc1NCc1ccncc1 | -6.1 | 67.4 | i | 0.9 | 92.0 | -1.9 | -8.9
COc1ccccc1N1C(=O)[C@@H]2[C@H](C1=O)[C@H](C(=O)c1ccc(OC(C)=O)cc1)N1N=CC=C[C@@H]21 | . | . | i | 1.03 | 94.7 | . | .
Cc1ccc(-c2sc(-c3cccnc3)nc2CC(=O)O)cc1 | -20.0 | 121.6 | i | 1.03 | 98.8 | . | -12.1
CC(NC(=S)N1CCN(c2ccccc2)CC1)c1ccccc1 (stereo not given) | . | . | i | 0.89 | 101.6 | . | .
CCN1CCCC1CNC(=O)c1cc(S(=O)(=O)CC)c(N)cc1OC (stereo not given) | . | . | i | 0.92 | 101.8&103.8 | . | .
CC(C)(C)c1ccc(/C=N/NC(=O)C(=O)NCCCN2CCOCC2)cc1 | 12.0 | 106.7 | i | 1.02 | 106.5 | -2.0 | 2.6
COc1cc(OC)c(NC(=O)Nc2ccc(OC)c(OC)c2)cc1Cl | -500.0 | 79.8 | i | 0.81 | 67.7 | -1.1 | -6.7
Cc1cc2nc3n(c2cc1C)CC1CC(C(=O)NCCc2cccs2)N(C)C31 (stereo not given) | . | . | i | 0.9 | 88.8 | . | .
COc1ccc(C(C(=O)NC2CCCC2)N(C(=O)c2ccoc2C)c2cc(C)cc(C)c2)cc1 (stereo not given) | . | . | i | 1.06 | 99.2 | -0.8 | -13.2
CC(C)CNC(=O)Nc1ccc(F)c(Cl)c1 | 15.8 | 105.2 | i | 1.23 | 98.2 | . | 8.1
CC(C)OCCCNC(=O)c1ccc(NC(=O)C2CCCO2)cc1 (stereo not given) | . | . | i | 0.76 | 106.4 | -2.5 | 7.5
COc1ccc(NC(=O)CSc2nnc(Cn3c(=O)sc4ccccc43)n2C)c(OC)c1 | . | . | . | . | 104.9 | -1.1 | -12.8
Cc1nc2ccccn2c1C(=O)NC1CCCCC1 | 18.8 | 108.7 | i | 0.88 | 88.0 | -0.7 | -8.5
O=C(/C=C/c1ccco1)Oc1cccc2cccnc12 | . | . | i | 0.96 | 96.4 | . | .
CCOC(=O)c1sc(NC(=O)Nc2ccccc2F)nc1C | 14.8 | 134.3 | i | 0.95 | 104.8 | -0.9 | -5.7
CCN(CC)S(=O)(=O)c1ccc(N2CCOCC2)c(NS(=O)(=O)c2ccc(C(C)C)cc2)c1 | 3.7 | 100.4 | i | 0.96 | 80.1 | 0.1 | -6.9
COc1ccc(-c2noc(COc3ccc4ccccc4c3Br)n2)cc1OC | 8.3 | 123.2 | i | 0.93 | 98.4 | -2.2 | 0.1
Cc1ccc(NC(=O)C2CCCN2C(=O)Oc2ccccc2)cc1 (stereo not given) | -15.8 | 212.0 | i | 0.94 | 101.3 | -0.1 | -12.2
CN1C/C(=C/c2cccnc2)C(=O)/C(=C/c2cccnc2)C1 | -67.7 | 71.3 | i | 0.85 | 93.3 | -1.0 | -5.6
Cc1cccc(NS(=O)(=O)c2cc(C(=O)N3CCCC3)ccc2Cl)c1 | 13.8 | 89.1 | i | 1.16 | 100.0 | 0.2 | -3.7
CCOC(=O)c1c(-c2ccccc2)csc1N1C(=O)Nc2ccccc2N1O | 56.8 | 103.1 | i | 1.07 | 104.7 | . | 6.9
COc1ccc(C(=O)/C=C/c2cc(OC)c(O)c(OC)c2)c(F)c1 | -20.0 | 107.2 | ? | . | 89.6 | -0.4 | -1.2
Cc1cc(C)cc(OCC(=O)OCC(=O)Nc2ccc(Cl)cn2)c1 | 2.7 | 143.2 | i | 0.97 | 103.4 | -1.8 | 0.9
C[N+](C)(C)CCCC(=O)c1ccc2c(c1)OCO2 | -5.3 | 208.4 | i | 0.92 | 95.0 | -0.6 | -4.3
CSc1nc(C)c(Cl)c(C)c1C#N | -22.2 | 76.0 | i | 0.993 | 99.4 | -0.1 | -0.9
O=C(NCCCn1ccnc1)c1cc(C2CC2)on1 | 50.0 | 223.8 | i | 0.92 | 102.1 | -0.9 | -3.2
COC(=O)[C@H](C)NC(=O)NCCC1=CCCCC1 | . | . | i | 0.99 | 95.4 | . | .
O=C(OC(C(=O)NC1CCCC1)c1ccncc1)C1=Cc2ccccc2OC1 (stereo not given) | -2.7 | 104.3 | i | 0.83 | 103.4 | -0.4 | 1.4
O=C(O)c1cccc(NC(=S)NC(NC(=O)c2ccccc2[N+](=O)[O-])C(Cl)(Cl)Cl)c1 (stereo not given) | . | . | i | 0.88 | 97.8 | . | 7.1
CCn1c(C)c(C(C)=O)c(SC)nc1=S | 33.3 | 137.1 | i | 0.91 | 64.1 | -2.0 | -2.7
Cc1cc(Cl)ccc1NC(=O)COC(=O)c1nc2nccc(C)n2n1 | 14.3 | 120.4 | i | 0.99 | 98.8 | . | 0.7
O=C(NCC(c1cccnc1)N1CCOCC1)c1cccs1 (stereo not given) | -220.0 | 40.4 | i | 0.88 | 94.4 | -2.1 | -7.4
COc1cc(C(F)(F)F)nc2c(Br)c(C(C)(C)C)nn12 | . | . | i | 1.06 | 83.2 | . | .

# An excerpt from above with just HSV replic up primary fold and HSV replic up.
canonical_smiles	HSV replic up primary fold	HSV replic up
COC(=O)[C@H](C)NC(=O)NCCC1=CCCCC1	0.99	i
O=C(OC(C(=O)NC1CCCC1)c1ccncc1)C1=Cc2ccccc2OC1 (stereo not given)	0.83	i
O=C(O)c1cccc(NC(=S)NC(NC(=O)c2ccccc2[N+](=O)[O-])C(Cl)(Cl)Cl)c1 (stereo not given)	0.88	i
CCn1c(C)c(C(C)=O)c(SC)nc1=S	0.91	i
Cc1cc(Cl)ccc1NC(=O)COC(=O)c1nc2nccc(C)n2n1	0.99	i
O=C(NCC(c1cccnc1)N1CCOCC1)c1cccs1 (stereo not given)	0.88	i
COc1cc(C(F)(F)F)nc2c(Br)c(C(C)(C)C)nn12	1.06	i

# Carrying on:
Structure | Insulin prom inh | Insulin prom inh cell count | HSV replic up | HSV replic up primary fold | RGS16-Gao HTS | GALR2 ag | PKD1 inh
Cc1ccc(S(=O)(=O)NC(=O)N2CCCN(Cc3ccc(F)cc3)CC2)cc1 | . | . | i | 1.19 | 92.4 | . | .
CC(NC(=O)NC12CC3CC(CC(C3)C1)C2)c1ccc2c(c1)OCO2 (stereo not given) | -5.3 | 113.7 | i | 0.96 | 106.2 | . | -3.0
COc1ccccc1N1CCN(Cc2nc3ccsc3c(=O)[nH]2)CC1 | -87.1 | 121.3 | i | 0.99 | 108.2 | -1.1 | 7.0
COc1cc(OC)c(NC(=O)CCNC(=O)Cn2ccc3ccccc3c2=O)cc1Cl | -2.3 | 91.3 | i | 0.89 | 106.6 | 0.1 | -1.3
CC(C)CCNC(=O)CCn1nc(-c2ccccc2)ccc1=O | 0.0 | 172.9 | . | . | 98.2 | -0.8 | 2.6
COc1cccc(-n2c(SCC(=O)Nc3cc(C)on3)nc3ccccc3c2=O)c1 | 2.9 | 63.1 | i | 1.03 | 98.8 | -0.2 | 0.4
CCCCCCCC(=O)N/N=C/c1cccnc1 | -2.8 | 152.5 | i | 1.01 | 106.0 | -1.8 | -2.2
CCN(CC)S(=O)(=O)c1ccc(C)c(NC(=O)COc2ccc3c(C)cc(=O)oc3c2)c1 | . | . | i | 1.13 | 101.0 | -0.3 | -10.2
O=C(/C=C/c1ccc(Br)o1)Nc1nccs1 | 16.7 | 171.6 | i | 0.98 | 96.8 | . | -2.1
Cc1cc(C)c2c(N)c(C(=O)NN3CC(=O)N(c4cccc(Cl)c4)CC3=O)sc2n1 | . | . | i | 0.96 | 101.8 | . | .
CC[C@H](C)NC(=O)CCCCCn1c(=S)[nH]c2c([nH]c3ccc(OC)cc32)c1=O | . | . | i | 0.9 | 99.5 | . | -4.9
CCCCC(=O)N=c1sc2c(OC)ccc(OC)c2n1C | . | . | i | 0.97 | 102.0 | . | .
O=C(CCCOc1ccc(Cl)cc1)Nc1cccc(C(=O)O)c1 | -5.9 | 101.0 | i | 0.98 | 95.5 | . | 2.7
CCOC(=O)c1sc2nccc(N(C)C)c2c1N=CNOCc1ccccc1 | 38.7 | 72.0 | i | 0.82 | 103.3 | 3.5 | -1.1
COc1ccc(/C(N)=N/OC(=O)c2cccc([N+](=O)[O-])c2C)cc1 | . | . | i | 1 | 101.4 | . | 0.7
Cc1ccc(N(CN2C(=O)c3ccccc3C2=O)C(=O)c2ccc([N+](=O)[O-])cc2[N+](=O)[O-])cc1 | -41.7 | 122.0 | i | 0.91 | 34.7 | -0.7 | 8.0
CC(C)C[C@H](NC(=O)c1[nH]cnc1C(=O)N[C@@H](C)c1ccccc1)C(=O)OC(C)(C)C | . | . | i | 0.77 | 88.9 | . | 3.8
Cn1nc(CC(=O)Nc2ccc3c(c2)CCC3)c2ccccc2c1=O | -30.3 | 88.4 | i | 0.98 | 99.4 | -0.6 | -10.3
CC(=O)c1nn(-c2ccc(Br)cc2)cc1C(=O)c1ccco1 | -19.4 | 129.6 | i | 1.19 | 105.2 | -1.1 | 7.0
CC(OC(=O)c1ccc(S(=O)(=O)NCc2ccco2)cc1)C(=O)Nc1ccc(Cl)cn1 (stereo not given) | -29.4 | 92.7 | i | 0.8 | 104.7 | -1.1 | 0.8
CSc1nnc(NC(=O)C2CCCCC2)s1 | . | . | i | 0.92 | 129.4 | -1.1 | -6.3
Cc1onc(-c2ccccc2)c1NC(=O)N(CCC#N)Cc1ccccc1 | . | . | i | 1.06 | 108.3 | . | .
COc1ccc(/C=C2\SC(=O)N(CCc3nnc(N)s3)C2=O)cc1 | . | . | i | 0.91 | 97.1 | . | .
O=S(=O)(Nc1cccc(S(=O)(=O)N2CCCCCC2)c1)c1ccccc1 | . | . | i | 1.02 | 107.3 | . | 3.1
Cn1c(=O)n(C)c2cc(NC(=O)CSc3nnc(-c4ccccc4O)n3-c3ccccc3)ccc21 | -25.8 | 89.5 | i | 0.98 | 112.7 | -1.1 | -5.0
CCOc1cc(C=O)ccc1OS(=O)(=O)c1ccc(NC(C)=O)cc1 | 28.1 | 154.9 | i | 0.9 | 102.3 | -1.0 | -5.3
O=C(Nc1ccccc1Cc1ccccc1)c1ccc2c(c1)SC1=NS(=O)(=O)CCN12 | -13.3 | 95.9 | i | 0.87 | 110.4 | -0.6 | -5.8
O=C(NCC1OCCc2ccccc21)c1cc(COc2ccc(F)cc2Cl)on1 (stereo not given) | . | . | i | 0.86 | 97.8 | . | -1.9
CCC(NC(=O)c1ccccc1O)c1ccccc1 (stereo not given) | -74.1 | 113.0 | i | 1.07 | 86.9 | -0.7 | -1.2
COc1ccc(OCCCCOc2ccccc2Cl)cc1 | . | . | i | 0.95 | 99.7 | -3.6 | -3.1
CCC(=O)Nc1cccc(NC(=O)CSc2nnnn2C)c1 | -50.0 | 57.9 | i | 0.97 | 98.2 | -3.2 | -15.2
N#CC(C#N)=Cc1cccn1-c1ccc(C(=O)O)cc1 | . | . | i | 0.92 | 98.8 | . | 1.7

# Fetched by compound from the entries so far (2):
Structure | Insulin prom inh | Insulin prom inh cell count | HSV replic up | HSV replic up primary fold | RGS16-Gao HTS | GALR2 ag | PKD1 inh
N#CC(C#N)=Cc1cccn1-c1ccc(C(=O)O)cc1 | . | . | i | 0.92 | 98.8 | . | 1.7
CSc1nnc(NC(=O)C2CCCCC2)s1 | . | . | i | 0.92 | 129.4 | -1.1 | -6.3

# No enrichment for hits (roughly 1.2% active in at least one column).
